High-throughput results deposited in PubChem BioAssay by National Center for Advancing Translational Sciences (NCATS).
ClpP mod – qHTS Assay for Activators of ClpP; ATP-dependent Clp protease proteolytic subunit (Bacillus subtilis (strain 168)), P80244; purified B. subtilis ClpP, FRET peptide cleavage, 20 min; Potency, µM (doses to about 57.5 µM), inactives show at the top dose activity change, negative = active; 1.9% of 340,000 active; active = well fitted falling curve with a large enough effect; inconclusive = small, poorly fitted or top-dose-only effect; inactive = no such curve, though single readings can be large or run the other way; further: potency means the concentration at half of the fitted maximal effect; the source files actives as falling curves though it sought activators and does not explain the sign; nearly all actives have a fitted effect of over 65% in size; many hits overshoot -100%
Target sequence (P80244 whole entry, looked up): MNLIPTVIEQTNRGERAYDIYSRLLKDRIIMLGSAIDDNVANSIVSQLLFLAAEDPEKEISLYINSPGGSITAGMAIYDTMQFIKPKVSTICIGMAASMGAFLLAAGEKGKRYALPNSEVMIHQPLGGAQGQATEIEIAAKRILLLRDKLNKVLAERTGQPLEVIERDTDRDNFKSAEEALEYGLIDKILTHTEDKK
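FRET quenching reversal measured ClpP activation: 10 microg/mL B. subtilis ClpP at pH 8 with the FRET-FV decapeptide, read at 430 nm after 320 nm excitation. The 20-min minus 0-min signal was scaled between DMSO/no-enzyme wells and ADEP (5.8 microM final).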
Sfp inh – qHTS Assay for Inhibitors of Bacillus subtilis Sfp phosphopantetheinyl transferase (PPTase); Potency, µM, without a hit: max response, negative = inhibition, hits mostly inhibitors; 3.5% of 310,000 active; 4'-phosphopantetheinyl transferase ffp (Bacillus subtilis), Q9F4F7; Biochemical Sfp PPTase activity, qHTS; AID 1490, 2009; active means well fitted inhibition curve with a large enough effect; inconclusive means small, poorly fitted or top-dose-only effect, or another doubt; inactive means no such curve, though single readings can be large or run the other way;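 further: the enzyme is Sfp with the accession as filed and its product quenches rhodamine fluorescence; potency means the concentration at half of the fitted maximal effect; 0% = enzyme reaction without inhibitor and -100% = no enzyme wells; top concentration of the series not given in the record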
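Step 1, compound plus 15 nM Sfp-PPTase, 15 min, room temperature. Step 2, add rhodamine-CoA (5 uM) and BHQ-2-YbbR (12.5 uM). Step 3, read 525/598 nm fluorescence at 0 and 30 min.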
Menin MLL FP FL – qHTS Assay for Inhibitors Targeting the Menin-MLL Interaction in MLL Related Leukemias: Competition With Fluorescein Labeled MLL-derived Peptide; Fluorescence polarization, fluorescein-MLL peptide displacement from menin; 290,000 tested, under 10 active; AID 1766, 2009; FP activity change, % at 61.4 µM; inconclusive = falling polarisation curve, or a change in total fluorescence; inactive = total fluorescence flat and polarisation flat or rising; no compound was filed as active; the % refers to the polarisation; negative = inhibition;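 further: % of control where 0% means no effect; inhibitors lower the polarisation; unlabelled MLL peptide was the positive control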
TRPV1 PAM – HTS Assay for Compounds that Act as Potentiators of the Vanilloid Receptor 1; Transient receptor potential cation channel subfamily V member 1 (Homo sapiens), Q8NER1; TRPV1-expressing cells, Fluo-8 calcium influx, capsaicin EC20 potentiation; host cell line not named in the record; control for the full effect not named in the record; potentiation, % at 8.33 µM; 0.02% of 320,000 active; AID 540277, 2011; active means potentiation above 80%; inconclusive means 30% to 80%; inactive means below 30%; further: 0% is about no effect
Target sequence (Q8NER1 whole entry, looked up): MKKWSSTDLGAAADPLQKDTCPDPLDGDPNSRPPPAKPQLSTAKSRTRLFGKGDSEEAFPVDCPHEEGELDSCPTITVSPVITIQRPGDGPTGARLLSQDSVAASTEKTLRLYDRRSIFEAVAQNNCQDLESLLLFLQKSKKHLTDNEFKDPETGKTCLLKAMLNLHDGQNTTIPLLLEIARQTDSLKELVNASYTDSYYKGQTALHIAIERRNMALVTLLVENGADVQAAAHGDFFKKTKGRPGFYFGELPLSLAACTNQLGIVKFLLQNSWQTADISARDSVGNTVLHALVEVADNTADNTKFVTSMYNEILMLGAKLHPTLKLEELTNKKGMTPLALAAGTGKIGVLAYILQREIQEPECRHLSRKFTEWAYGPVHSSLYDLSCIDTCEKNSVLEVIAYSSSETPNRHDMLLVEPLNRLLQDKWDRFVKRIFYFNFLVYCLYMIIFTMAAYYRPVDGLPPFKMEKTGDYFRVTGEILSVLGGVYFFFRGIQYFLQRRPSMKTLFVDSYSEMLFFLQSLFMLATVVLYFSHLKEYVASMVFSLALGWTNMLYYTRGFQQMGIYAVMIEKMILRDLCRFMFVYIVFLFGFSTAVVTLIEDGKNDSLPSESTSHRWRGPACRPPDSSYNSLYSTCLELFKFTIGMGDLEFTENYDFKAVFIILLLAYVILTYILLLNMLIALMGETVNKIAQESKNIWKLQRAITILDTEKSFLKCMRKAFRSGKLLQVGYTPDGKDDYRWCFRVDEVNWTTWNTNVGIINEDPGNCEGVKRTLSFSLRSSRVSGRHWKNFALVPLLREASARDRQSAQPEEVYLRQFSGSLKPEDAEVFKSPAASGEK
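TRPV1-expressing cells were cultured overnight at 35.5C and loaded with Fluo-8 calcium dye for 40 to 90 min at room temperature. After a 10 s baseline, compound was added and calcium influx was read kinetically for 3 min (ex 480/em 520 nm).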
TRPML1 blocker – qHTS for Inhibitors of the Human Mucolipin Transient Receptor Potential 1 (TRPML1) | Mucolipin-1 (Homo sapiens), Q9GZU1 | TRPML1-inducible cells, Ca2+ dye fluorescence, FDSS; stronger effect = lower value; inhibition of EC80 agonist-evoked calcium signal | activity change, negative = inhibition, % (no concentration beside the values) | 0.02% of 390,000 active; in the data active means activity change below about -50%; inconclusive means about -30% to -50%; inactive means above about -30%;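 further: stimulus is agonist 54-4 at its EC80 concentration; on the % scale 0 is the no-effect control and ±100 the full control effect; compound concentration not given in the record; the text of the record puts the active cut at -80%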
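Calcium fluorescence in TRPML1-DL cells induced overnight with Tet: a 110 s read after compound pin addition, then a 110 s antagonist read after challenge with 54-4 at 4 uM final (EC80).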
gsp agonist – qHTS for Agonist of gsp, the Etiologic Mutation Responsible for Fibrous Dysplasia/McCune-Albright Syndrome: qHTS. gsp mutant cells, cAMP HTRF, 30 min; control for the full effect not named in the record. Potency, µM (series often up to 76.9 µM), inactives show top-dose activation (cAMP increase), most hits filed as activators. 0.13% of 340,000 active. AID 624287, 2012; active = well fitted activation curve with a large enough effect; inconclusive = small, poorly fitted or top-dose-only effect, or another doubt; inactive = no such curve, though single readings can be large or run the other way; cell line not stated here;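 further: phosphodiesterase inhibitor Ro 20-1724 added with compounds to block cAMP breakdown; potency means the concentration at half of the fitted maximal effect; nearly all actives have a fitted effect of over 60% in size; about a fifth of the inactives were tested at one dose only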
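Cells stably selected in G418 were plated at 2000/well, grown 16-24 hr, then given compounds in DMSO with the PDE inhibitor […] (300 uM solution added) for 30 min at 37C; cAMP was read by HTRF.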
gsp antag – qHTS for Antagonists of gsp, the Etiologic Mutation Responsible for Fibrous Dysplasia/McCune-Albright Syndrome: qHTS. gsp-mutant cells, cAMP HTRF, 30 min; control for the full effect not named in the record. Potency, µM (doses to about 76.9 µM), without a hit: at the top dose activity change, negative = inhibition, actives largely listed as inhibitors. 0.4% of 340,000 active; active = falling curve of any shape with a large fitted effect; inconclusive = falling curve, mostly with a smaller effect; inactive = flat or rising curve; cell line not stated here;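 further: intracellular cAMP measured with PDE inhibitor Ro 20-1724 present during compound exposure; potency means the concentration at half of the fitted maximal effect; on the % scale 0 is the no-effect control and ±100 the full control effect; nearly all actives have a fitted effect of over 65% in size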
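HTRF cAMP measurement after 30 min RT detection following 30 min, 37C compound treatment alongside […] (added as 300 uM solution) in G418-selected cells seeded at 2000/well and grown 16–24 h.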
* = called active by the depositor; ? = inconclusive; . = not tested or not shown; & = joins results of further samples; [ ] = another dose, or the depositor's remark.

SMILES	ClpP mod	Sfp inh	Menin MLL FP FL	TRPV1 PAM	TRPML1 blocker	gsp agonist	gsp antag
Cc1cccc(/C=C/C(=O)c2ccc(N3CCOCC3)cc2)c1	.	-25%	3.9	0	.	.	.
O=C(N/N=C/c1cc(Br)c(Br)o1)c1cccnc1	-0.7%	32µM*	?	-11	-9	-1%	-4%
COc1ccc(-c2ccc(SCC(=O)c3cccs3)nn2)cc1OC	-1.0%	19%	-0.8	9	0	4%[15.4 µM]	-3%
COc1ccc2[nH]c3c(=O)n(CCCC(=O)NC4CCCCC4C)c(=S)[nH]c3c2c1 (configuration not stated)	.	-1%	.	-11	-6	-30%[15.4 µM]	10%
COc1ccc(/C=c2\s/c(=C/C(=O)c3ccc(C)cc3)[nH]c2=O)c(OC)c1	-1.6%	-19%	?	17	-2	-2%[15.4 µM]	-1%
Cc1ccc(S(=O)(=O)n2nc(OC(=O)c3ccccc3C)cc2N)cc1	.	-5%	0.3	4	12	?	-10%
Cc1cc(OCC(=O)OCC(=O)NCc2ccco2)ccc1Cl	.	.	.	14	-2	26%[15.4 µM]	7%
CCCCn1c(N)c(N(CC(C)C)C(=O)Cn2c(=O)oc3ccccc32)c(=O)[nH]c1=O	.	.	.	17	-13	18%[15.4 µM]	-2%
COc1ccc(NC(=O)C2CCC(CNc3c(N4CCOCC4)c(=O)c3=O)CC2)cc1Cl (configuration not stated)	.	11%	-2.1	-13	-7	12%[15.4 µM]	1%
Cn1nccc1C(=O)OCC(=O)Nc1cccc(Cl)c1	-9.9%	.	.	-14	10	-40%	1%
CCC(C)(C)c1nnc(NC(=O)c2cccc([N+](=O)[O-])c2)s1	0.8%	-2%	-1.2	-20	-3	-65%[inhibitor]	-10%
C=CCNC(=O)COc1c(C)ccc(C)c1C	-1.0%	8%	-1.4	-22	-21	3%	1%
CC(=C/c1ccccc1)/C=N/n1c(-c2ccncc2)n[nH]c1=S	.	-22%	2.1	-1	1	?	-17%
Cc1nc2c(sc(=S)n2Cc2ccco2)c(=O)n1CC(=O)Nc1ccccc1	1.1%	-25%	6.1	8	13	-18%	-44%
CC1(C)C=C(c2ccc(C=O)s2)CC(C)(C)N1	-4.2%	-2%	5.7	6	28	-9%	12%
Cc1c(Cl)cccc1NC(=O)NCc1ccc(F)cc1	0.7%	3%	0.6	6	18	-22%	4%
Clc1c(-c2nnc3n2CCCCC3)sc2ccccc12	-1.3%	-13%	0.4	0	-6	17%	-4%
COC(=O)N/N=C/c1cc(N=Nc2ccccc2Cl)ccc1O	0.5%	-13%	-2.0	8	29	-26%	-19%
Cc1ccc(S(=O)(=O)NCc2ccccc2)cc1C(=O)N1CCCC(C(F)(F)F)C1 (configuration not stated)	0.7%	.	.	-5	6	-7%[15.4 µM]	2%
COc1ccc(OCC(=O)Nc2ccc3nc(C)sc3c2)cc1	.	8%	0.1	18	5	14%[15.4 µM]	-6%
CCN(C(=O)c1ccc(NC(C)=O)cc1)c1ccccc1	0.4%	-2%	4.1	-5	9	-1%	-16%
CCCCNc1c(-c2ccc(-c3cccc(Cl)c3)cc2)nc2ccc(Cl)cn12	-2.8%	.	.	.	2	?	6%
COc1cc(OC)cc(C(=O)N2CCCc3ccccc32)c1	0.1%	-7%	5.0	2	13	29%	-8%
CSc1nnnn1-c1ccc(C(=O)O)cc1	-2.2%	19%	-6.3	13	0	1%	8%
Cc1cc(C)cc(SCc2noc(C(=O)NCCN(C)C)c2C(=O)NCCN(C)C)c1	-1.0%	.	.	.	-5	.	5%

Part of the list above, showing only ClpP mod, Sfp inh and TRPV1 PAM:
smiles | ClpP mod | Sfp inh | TRPV1 PAM
COc1cc(OC)cc(C(=O)N2CCCc3ccccc32)c1 | 0.1% | -7% | 2
Cc1ccc(S(=O)(=O)n2nc(OC(=O)c3ccccc3C)cc2N)cc1 | . | -5% | 4

Additional structures follow:
SMILES	ClpP mod	Sfp inh	Menin MLL FP FL	TRPV1 PAM	TRPML1 blocker	gsp agonist	gsp antag
Cc1ccccc1NC(=O)c1cc[n+]([O-])cc1	.	-1%	-1.7	-3	-23	20%	8%
Cn1c(=O)c2c(nc(Cc3ccccc3)n2C)n(C)c1=O	.	16%	-3.2	-2	-26	1%	18%
CCN1C(=NCCN2CCOCC2)N[C@@H](CCc2ccccc2)C(C(=O)OC)=C1C	.	6%&25%	?	-9&3	.	.	.
COc1ccccc1NC(=O)Nc1cccc(C)n1	0.5%	20%	5.8	17	.	3%	8%
CCc1nc(SCc2ccc(OCC(C)C)cc2)n[nH]1	.	18%	-4.7	2	27	?	-11%
Cc1ccc(Nc2cc(C)nc3ncnn23)c(C)c1	2.1%	13%	-1.2	-1	-5	-3%[15.4 µM]	18%
CC12CCC(C(=O)NNc3ccccc3)(C(=O)C1=O)C2(C)C (configuration not stated)	0.1%	11%	-3.4	-4	0	4%	3%
CCOc1ccc(-n2c(SCC(=O)Nc3ccc(CC)cc3)nc3n[nH]c(C)c3c2=N)cc1	.	-7%	1.0	9	-2	-1%[15.4 µM]	0%
Cc1cc(C)cc(C(=O)Nc2cccnc2)c1	0.4%	17%	0.3	-17	8	?	-4%
Cc1nc2ccc(S(=O)(=O)NCC(=O)N3CCc4ccccc4C3)cc2s1	0.0%	17%	2.9	-10	3	-24%	5%
CCCCNC(=O)c1cc(-c2ccc(F)cc2)on1	-0.7%	5%	1.5	1	-20	0%	5%
NC(=O)c1nn(-c2ccccc2)nc1NC(=O)Cn1nnc(-c2ccccc2)n1	?	-1%	-0.7	-8	10	1%	9%
O=C(O)CSc1ncccc1C(=O)O	2.5%	2%	2.8	7	3	-24%	10%
O=C(NNS(=O)(=O)c1ccccc1)C(O)(c1ccccc1)c1ccccc1	-1.7%	-15%	1.4	-1	-8	21%[15.4 µM]	2%
CCC(C)NC(=O)c1cnc2n(c1=O)CCS2 (configuration not stated)	-6.1%	18%	0.3	-5	2	0%	4%
COCCCNC(=O)c1c(N)n(/N=C/c2ccccn2)c2nc3ccccc3nc12	-1.5%	-2%	5.2	4	1	-6%[15.4 µM]	-5%
CCCNC(=O)N[C@@H](CCSC)C(=O)OC	-2.6%	-9%	1.1	-4	-8	12%	-2%
Cc1cc(C(=O)Nc2ccc(S(=O)(=O)N3CCCC3)cc2)cs1	0.5%	3%	2.6	-3	-2	?	-5%
Cc1ccccc1N(CC(=O)NC1CCCC1)C(=O)C1(C)CC(=O)N=C2C=CC=CN21 (configuration not stated)	?	11%	-4.3	-2	1	7%	6%
Cc1cc(Cl)nc(Cl)c1C(=O)NC(=O)NCCC(C)C	-2.4%	12%	-0.4	-4	-15	7%	5%
CC(C(=O)Nc1ccc(N2CCOCC2)cc1)N1C(=O)NC(C)(C)C1=O (configuration not stated)	2.5%	.	.	-1	-1	-4%	-3%
S=C(NCc1ccncc1)Nc1ccc(Cl)c(Cl)c1	0.4%	7%	3.1	-19	-5	5%	-10%
O=C(O)CC(C(=O)Nc1ccc(F)cc1)C1CCCO1 (configuration not stated)	.	12%	-1.7	-4	17	1%[15.4 µM]	6%
COc1ccc(N(CC(=O)Nc2ccc(Cc3ccncc3)cc2)S(=O)(=O)c2ccccc2)cc1	-2.1%	1%	2.1	-2	-2	8%[15.4 µM]	-17%
O=C(c1ccc2c(c1)OCCO2)N1CCN(Cc2c(F)cccc2Cl)CC1	0.5%	.	.	-6	0	?	-2%
(cont.)
SMILES	ClpP mod	Sfp inh	Menin MLL FP FL	TRPV1 PAM	TRPML1 blocker	gsp agonist	gsp antag
CCCSCCCNC(=O)CN1C(=O)COc2ccc(S(=O)(=O)N3CCCC3)cc21	-1.9%&-2.2%	13%	-0.5	-4	6&-3	6%	-8%
CC(C)(C)NC(=O)COC(=O)c1cncc(Br)c1	1.3%	18%	-1.5	15	25	1%	0%
NC(=O)NC(CC(=O)NNC(=O)c1ccccn1)c1ccccc1Cl (configuration not stated)	0.7%	.	.	-7	-11	-2%	9%
CCc1ccc(-c2cc(C)no2)cc1S(=O)(=O)NCCc1ccc(S(N)(=O)=O)cc1	2.2%	8%	-0.6	26	15	6%	-8%
CC(C)CCN1C(=O)c2ccc(C(=O)N3CCCCC3)cc2C1=O	-1.3%	.	.	-21	-2	0%[15.4 µM]	6%
CC1Cc2ccccc2N1C(=O)CN1C(=O)COc2ccccc21 (configuration not stated)	5.8%	9%	2.0	25	-8	-23%	5%
CCN(CC)S(=O)(=O)c1cccc(NC(=O)COC(=O)C2CC3C=CC2C3)c1 (configuration not stated)	-2.9%	24%	-0.3	2	2	-7%	-9%
Cc1cccn2cc(CNC(=O)c3ccc(Br)o3)nc12	-1.8%	13%	-2.2	1	-8	-2%	7%
Cc1ccccc1CN1C[C@H]2CON(C)[C@H]2C[C@H]1c1cccc(Br)c1	-4.3%	.	.	.	10	-50%[inhibitor]	.
O=C(CSc1ccc(Cl)cc1)NCC1CCCO1 (configuration not stated)	-1.5%	13%	1.9	0	9	-32%[inhibitor]	9%
CCCC(=O)Nc1nc(-c2ccc(OC)cc2)cs1	-3.3%	13%	4.3	-8	-22	11%	0%
Cc1ccc(SCc2[nH]nc3c2C2(C(=O)Nc4ccc([N+](=O)[O-])cc42)C(C#N)=C(N)O3)cc1 (configuration not stated)	2.6%	-15%	-1.2	11	-8	-25%	-4%
CN(C)C(CNC(=S)Nc1ccc(F)cc1)c1cccnc1 (configuration not stated)	.	1%	0.0	6	-7	-10%[15.4 µM]	3%
CCn1c(CSCc2ccccc2)n[nH]c1=S	.	10%	-0.1	7	-16	-5%[15.4 µM]	-8%
